Source: PubChem
T cruzi inh = blocks replication of Trypanosoma cruzi. T. cruzi beta-gal in NIH3T3, luminescence, 90 h. inhibition, % (concentration not given with the values). 1.4% of 300,000 active. AID 1885;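 active = mean inhibition across valid replicates above about 55%, limit read from the data; inconclusive = mean below that limit but half or more replicates reach it; inactive = mean below it, under half of replicates reach it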;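 also: signal also drops with host cell toxicity which is not excluded here; 0% = plate median of DMSO wells and 100% = zero luminescence signal; higher percent means less beta-gal luminescence so fewer parasites; stock transfer was 50 nL into about 50 µL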
A1 inh = inhibitors of the anti-apoptotic protein A1, read as caspase activation. MEF A1-2A-BIM cells, Caspase-Glo 3/7 luminescence, 3 h; percent of clofoctol response, vehicle zero. caspase activation, % (no concentration beside the values). 0.066% of 330,000 active. AID 2462;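 active = over half of replicate activation scores above 10%, or exactly half above 10 with the replicate mean above 10; inconclusive = replicate mean below 10 yet half the replicates above 10; inactive = over half of replicates below 10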;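 also: wells of about 30 µL received 50 nL stock; many hits fall short of the cut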
Calb FLC = C. albicans growth modulation with fluconazole; C. albicans CaCi-2 (fluconazole-resistant clinical isolate) + fluconazole, Alamar Blue growth, 48 h; growth inhibition, % (concentration not given with the values); 0.57% of 300,000 active;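 active = most replicates above 75%; inconclusive = exactly half above 75%; inactive = most below 75%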;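 also: all wells also contain fluconazole at 8 µg/ml as a sub-toxic cotreatment; 0% = median of DMSO wells and 100% = median of geldanamycin control wells; wells of about 8 µL received 7.5 nL stock; the first replicate is given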
AF4-AF9 inh = MLL-AF4/AF9 protein interaction inhibition. AlphaScreen, biotin-AF4 peptide binding to FLAG-AF9. inhibition, % at 10 µM. 0.47% of 350,000 active. P42568;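 active = every replicate reaching a set inhibition limit, whatever the replicate mean, cut at about 25% in these data; inconclusive = mean inhibition reaches that limit but some replicates miss it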;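 also: 0% = plate neutral control median and 100% = total signal loss; the record names both 10 and 1 µM as test concentration; the first replicate is given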
Target sequence (P42568 whole entry, looked up): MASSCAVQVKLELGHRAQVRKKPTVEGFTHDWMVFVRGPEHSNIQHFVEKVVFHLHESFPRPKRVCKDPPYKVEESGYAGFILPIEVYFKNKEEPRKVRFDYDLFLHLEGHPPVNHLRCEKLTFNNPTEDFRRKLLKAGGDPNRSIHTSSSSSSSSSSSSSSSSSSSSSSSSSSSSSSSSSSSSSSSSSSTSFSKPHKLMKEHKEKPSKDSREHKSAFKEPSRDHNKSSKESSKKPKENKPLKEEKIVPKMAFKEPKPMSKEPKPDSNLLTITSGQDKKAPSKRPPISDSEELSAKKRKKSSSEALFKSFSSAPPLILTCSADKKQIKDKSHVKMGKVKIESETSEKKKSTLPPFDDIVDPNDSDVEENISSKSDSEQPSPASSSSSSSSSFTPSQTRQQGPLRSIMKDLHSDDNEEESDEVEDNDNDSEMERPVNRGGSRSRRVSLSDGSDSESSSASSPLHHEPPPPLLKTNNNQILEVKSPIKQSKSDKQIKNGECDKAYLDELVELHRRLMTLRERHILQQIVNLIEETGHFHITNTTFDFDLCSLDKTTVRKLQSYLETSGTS
Beta apoptosis = beta cell apoptosis inhibition. INS-1E cytokine-induced death, ATP luminescence, 48 h; percent of positive-control rescue, neutral wells zero. protection from apoptosis, % (concentration not given with the values). 0.8% of 300,000 active;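 active = all replicates at 75% or more, or half of them and the mean; inconclusive = half reach 75% but not the mean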;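 also: 0% = cytokine-treated negative control wells and 100% = positive control rescue; higher means more ATP so stronger rescue from cytokine killing; wells of about 40 µL received 100 nL stock; the first replicate is given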
LANA-H2A inh = blocks KSHV LANA binding to histone H2A/H2B. inhibition, % (test concentration not listed). cell-free LANA-H2A/H2B peptide, fluorescence polarization. 0.6% of 320,000 active; in the data active = inhibition mostly above about 10%, no sharp cut-off; inactive = mostly below about 6.7%;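 also: stock transfer was 7.5 nL into about 10 µL; 0% = median of vehicle wells and 100% = median of positive control wells; one replicate is shown; the record names a cut of 25% in any replicate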
Vif TR-FRET = HIV-1 Vif–A3G interaction blockers – biochemical, TR-FRET, GST-Vif 1-94, biotin-A3G peptide, dose response retest, primary screen (AID 1117319) | TR-FRET GST-Vif / biotin-A3G peptide binding; higher % means a stronger effect; test concentration not given here; strong numbers were not always called active | inhibition, %, or IC50 in µM where a hit was titrated | 0.57% of 260,000 active;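 active = above the screen mean plus three standard deviations and confirmed in dose response; inconclusive = results disagree or hit not tested in dose response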;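 also: Vif residues 1-94 fused to GST binding biotinylated APOBEC3G peptide 110-148; 0% = full assay without inhibitor and 100% = GST in place of GST-Vif; retest series ran down from 100 µM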
RanGTP-Imp inh = inhibitors of RanGTP-importin-beta interaction, primary screen, biochemical, FRET, CFP-Ran, YFP-importin-beta, homogeneous. cell-free CFP-Ran/YFP-importin-beta FRET ratio. inhibition, % (concentration not given with the values). 1.1% of 300,000 active. AID 2216;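 active = most replicates above 15%; inconclusive = exactly half above 15%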;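 also: 0% = DMSO wells and 100% = Ran loaded with GDP instead of GTP; wells of about 40 µL received 100 nL stock; the first replicate is given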
* hit, by the source's call; ? = inconclusive; / = no result given; & = joins results of further samples. The order is random; about 4.3% have a hit in one of these screens.

SMILES	T cruzi inh	A1 inh	Calb FLC	AF4-AF9 inh	Beta apoptosis	LANA-H2A inh	Vif TR-FRET	RanGTP-Imp inh
CCOC(=O)C1(Cc2cccc(Cl)c2)CCCN(C(=O)C2CC2)C1 (stereo not given)	-1	0.1	2	-4.6	-4	2.6	7%	-4.5
COc1ccc(OCCCC(=O)Nc2cccc(SC)c2)cc1	1	-0.9	0	7.5	-1	-2.6	/	5.4
COCc1cc(S(=O)c2ccc(Cl)cc2)nc(C)n1 (stereo not given)	61*	/	-32	-7.3	/	/	6%	1.0
CCCC(=O)Nc1ccccc1N1CCN(C(=O)C(C)C)CC1	5	-0.6	-5	/	-1	-0.1	16%	2.0
C=CCNC(=O)COc1ccc(S(=O)(=O)N2CCCC2)cc1	1	0.5	24	2.3	-1	4.7	/	2.8
CCC(=O)NCCn1ccc2ccccc21	-5	-0.2	-2	-10	-5	5.3	0%	-0.9
CCC(CC)C(=O)c1c[nH]c(C(=O)NCc2ccc(F)cc2)c1	-1	-0.2	1	-0.3	-2	3.4	-11%	0.7
CC(/C=C/c1ccccc1)NC(N)=O (stereo not given)	-3	1.8	-5	-6.2	-5	1.7	-5%	-1.0
CC(=O)Nc1ccc(/C=N/N2C(=O)NC(C)(c3ccc(OC(F)F)cc3)C2=O)cc1 (stereo not given)	4	0.2	-13	-9.2	0	0.5	13%	7.5
Cc1ccccc1-c1nnc(SCC(=O)Nc2cccnc2Cl)o1	/	-1.3	/	-14	43	1.8	-3%	/
CC(C)CCNC(=O)CN1N=C(c2ccc(Cl)cc2)CCC1=O	-15	-0.1	1	-0.1	-2	1.4	-7%	-2.0
C(=N\Nc1ccccn1)/c1ccc(N2CCOCC2)cc1	31	-6.2	-40	-1.2	13	2.4	-3%	-4.4
COc1ccc(Nc2nc3c(C)cccn3c(=O)c2C=O)cc1	5	/	3	0.9	/	/	-11%	-4.6
CCCC(=O)Nc1ccc(C(=O)N/N=C2\CC(=O)CC(C)(C)C2)cc1	-6	0.4	-7	/	-3	1.3	?	-0.5
O=C(c1cc([N+](=O)[O-])ccc1Cl)N1CCN(c2ccccc2)CC1	4	-0.2	-5	/	-2	-2.7	11%	-1.9
O=C(Cn1c(=O)n(Cc2ccc3c(c2)OCO3)c(=O)c2ccccc21)N1CCCc2ccccc21	/	-1.4	4	/	12	3.5	-8%&-14%	/
CN1/C(=C\C(=O)c2cccs2)Sc2ccccc21	14	-4.8	4	/	-21	-0.6	14%	?
Cn1cnc2c1c(=O)n(CC(O)CO)c(=O)n2C (stereo not given)	-24	0.2	-3	-0.2	-3	-8.4	-6%	5.1
COc1cc(/C=N/NC(=O)CCc2c(C)n[nH]c2C)ccc1O	-4	0.4	15	/	2	-0.2	-2%	-2.5
O=C1COc2ccc(-c3csc(NCCc4ccccc4)n3)cc2N1	6	-0.4	5	2.4	-7	-3.2	0%	-1.6
COc1cccc(/C=C2\Oc3cc(OC(=O)N4CCOCC4)ccc3C2=O)c1	-13	0.0	-13	5.1	-17	-6.0	1%	2.3
Cc1c(C(=O)Nc2ccc(F)cc2)oc2ccc(S(=O)(=O)N3CCCC3)cc12	5	0.1	-7	-8.0	-3	-0.3	/	0.8
CC(c1ccon1)N(C)C(=O)c1ccc2nc(Cc3cccc(Cl)c3)oc2c1 (stereo not given)	13	-0.8	27	-3.2	-4	-0.9	/	1.6
CCn1c(=N)n(CC(=O)C(C)(C)C)c2ccccc21	30	-0.8	-3	12	-1	-1.1	1%	6.3
O=C(CSc1nc2ccccc2c(=O)n1CCCN1CCOCC1)Nc1ccccc1OC(F)F	/	1.0	/	0.8	6	-6.2	-8%	/
CN1CCCC(OC(=O)c2ccc(Cl)cc2)C1 (stereo not given)	-12	0.0	-3	5.6	32	0.8	/	-3.2
CC(C)(C)NC(=O)N1CCCN(c2ccc(C(F)(F)F)cn2)CC1	-9	0.0	3	-3.6	0	3.1	-4%	1.1
COc1ccc([C@H]2CC(=O)C=C(c3cccc(CO)c3)C2)cc1OC	/	0.6	/	0.1	-3	1.6	/	/
Cc1ccc2cc(C(c3nnnn3Cc3ccccc3)N3CCc4ccccc43)c(=O)[nH]c2c1C (stereo not given)	5	-0.6	?	/	7	1.6	-78%	?
Cc1cccnc1NC(=O)c1cccc(NC(=O)CC2SC(N3CCCCC3)=NC2=O)c1 (stereo not given)	/	-0.3	/	-1.2	-3	0.5	1%	/
N#CCCn1cc(CNCc2ccccc2)c(-c2cccc([N+](=O)[O-])c2)n1	6	0.1	-13	2.8	-1	3.7	-1%	0.8
Cc1ccc(C(=O)Nc2c(C)cc(C)c3cccnc23)cc1	-16	-0.6	1	-2.6	0	0.4	4%	-0.8
COC(=O)c1oc2c(c1C)C1(CCC2)SCCS1	7	-0.7	33	/	9	-1.5	5%	-0.3
N#CCCn1cc(/C=N/O)c(-c2ccc(Cl)cc2)n1	3	-0.7	3	/	-9	-5.7	-2%	4.1
COc1ccccc1NC(=O)c1ccc(CS(=O)(=O)c2ccc(C)cc2)cc1	0	0.1	17	2.0	-2	-0.3	/	-0.7
CN1CCCN(C(=O)c2ccc(Cl)cc2)CC1	2	-0.4	-6	-18	0	-20	/	3.7
O=C(c1cccc([N+](=O)[O-])c1)N1CCCC(C(=O)N2CCCCCC2)C1 (stereo not given)	3	-0.6	6	-0.6	/	2.6	2%	-2.4
CCC(C)N(C(=O)Cn1nnc2ccccc21)C(C(=O)Nc1ccc(F)cc1)c1cccc(OC)c1 (stereo not given)	21	0.1	11	/	-5	0.1	23%	-0.2
CC1(C)CC(=O)C(C=Nc2ccc(C(=O)c3ccccc3)cc2N=CC2=C(O)CC(C)(C)CC2=O)=C(O)C1	-16	0.1	-1	0.9	/	4.3	?	-33
FC(F)Oc1ccc(NC(=S)NCc2nc3ccccc3[nH]2)cc1	3	-0.1	-9	5.2	-11	-2.1	-2%	1.3
CCN(c1ccc(NC(=O)COC(=O)/C=C/c2ccco2)cc1)C(C)C	/	-0.8	/	8.2	0	-4.0	/	/
CC(C)C(NC(=O)c1cccs1)C(=O)NC1CCCCC1 (stereo not given)	-4	-0.7	-6	-0.1	-1	0.4	-7%	2.1
CCCCNC(=O)N1CCN(c2ccccc2OC)CC1	-3	0.3	3	/	3	-0.5	27%	-1.9
COc1ccc(S(=O)(=O)N2CCCCCC2)cc1NC(=O)c1ccccc1F	/	-1.5	/	-6.3	-1	1.0	1%	/
O=C(OC(C(=O)NCc1ccc(F)cc1)c1ccccc1)c1ccco1 (stereo not given)	-13	0.5	2	-2.9	-2	0.6	3%	9.6

Fetched by compound from above (3):
SMILES	T cruzi inh	A1 inh	Calb FLC	AF4-AF9 inh	Beta apoptosis	LANA-H2A inh	Vif TR-FRET	RanGTP-Imp inh
COc1ccccc1NC(=O)c1ccc(CS(=O)(=O)c2ccc(C)cc2)cc1	0	0.1	17	2.0	-2	-0.3	/	-0.7
COc1ccc(S(=O)(=O)N2CCCCCC2)cc1NC(=O)c1ccccc1F	/	-1.5	/	-6.3	-1	1.0	1%	/
Cc1ccc(C(=O)Nc2c(C)cc(C)c3cccnc23)cc1	-16	-0.6	1	-2.6	0	0.4	4%	-0.8

Continued:
SMILES	T cruzi inh	A1 inh	Calb FLC	AF4-AF9 inh	Beta apoptosis	LANA-H2A inh	Vif TR-FRET	RanGTP-Imp inh
COc1ccccc1C1CC(c2ccc(NS(C)(=O)=O)cc2)=NN1C(=O)c1ccccc1 (stereo not given)	9	0.6	?	4.0	-4	0.8	1%	-3.9
C/C(=N\NC(=O)C1COc2ccccc2O1)c1ccc(Cl)s1 (stereo not given)	2	0.4	-6	0.5	-4	3.3	-2%	-0.7
CCOC(=O)C1=C(COC(=O)/C=C/c2ccccc2Cl)NC(=O)NC1C (stereo not given)	0	-0.7	-10	3.1	-4	-5.3	/	0.9
O=C(c1cccc(N2C(=O)c3ccccc3C2=O)c1)N1CCCC(C(F)(F)F)C1 (stereo not given)	-9	-0.4	4	2.7	0	5.3	-2%	-2.3
Cc1cccc(NC(=S)NNC(=O)c2ccc(O)cc2O)c1C	3	-0.9	3	0.1	-3	-2.3	3%	-5.8
N#Cc1cccc(C(c2nnnn2C2CCCC2)N2CCCCCC2)c1 (stereo not given)	-7	0.1	6	/	4	1.3	5%	-0.3
Cc1ccccc1NC(=S)NC(=O)C1CCCCC1	3	-0.2	-4	1.4	0	4.5	-10%	-0.9
CC(C)=C1C2CCC1C1C(=O)N(CCc3ccccc3)C(=O)C21 (stereo not given)	3	0.4	-12	/	7	2.9	0%	2.5
COc1ccccc1CCNC(=O)Cn1ccc2cc(S(=O)(=O)N3CCC(C)CC3)ccc21	42	0.2	-6	-3.8	10	-6.4	4%	3.7
O=C(C1CCN(S(=O)(=O)N2CCCC2)CC1)N1CCCCC1	-24	-0.3	4	/	-7	-2.1	1%	6.2
CCC(=O)NC1(C(F)(F)F)C(=O)Nc2c1c(=O)[nH]c(=O)n2Cc1ccco1 (stereo not given)	-9	0.4	-6	/	4	5.9	?	-4.4
O=C(c1cc(Cl)nc2ccccc12)N1CCN(S(=O)(=O)c2cccc(C(F)(F)F)c2)CC1	13	-0.5	-13	-19	-7	0.4	0%	10
CC(=O)n1nc(-c2cccnc2)nc1NCc1cccs1	-1	0.5	7	-8.0	-5	1.1	/	-0.1
Cn1c(=O)[nH]c(=O)c2c1nc(NCc1ccccc1)n2CCCc1ccccc1	0	-1.0	1	/	7	7.1	3%	-1.2
N#CC1=C(N)Oc2n[nH]c(-c3cccs3)c2C1c1ccsc1 (stereo not given)	-15	-0.1	-8	/	-10	2.1	10%	2.8

A second format for some results above:
canonical_smiles,T cruzi inh,A1 inh,Calb FLC,AF4-AF9 inh,Beta apoptosis,LANA-H2A inh,Vif TR-FRET,RanGTP-Imp inh
CN1CCCC(OC(=O)c2ccc(Cl)cc2)C1 (stereo not given),-12,0.0,-3,5.6,32,0.8,/,-3.2
CN1/C(=C\C(=O)c2cccs2)Sc2ccccc21,14,-4.8,4,/,-21,-0.6,14%,?

(more compounds)
SMILES	T cruzi inh	A1 inh	Calb FLC	AF4-AF9 inh	Beta apoptosis	LANA-H2A inh	Vif TR-FRET	RanGTP-Imp inh
O=c1cc(Cc2ccccc2)[nH]c(=S)[nH]1	-8	0.6	-15	3.0	-2	-2.2	0%	-0.7
Cc1ccc(NS(=O)(=O)c2cc(C(=O)Nc3cccc(N(C)S(C)(=O)=O)c3)ccc2C)c(C)c1	7	0.0	11	-5.0	0	7.1	-5%	3.8
Cc1cccc(NC(=O)COC(=O)c2ccccc2SCC(=O)N2CCCC2)c1	-8	-0.3	-8	-2.4	-7	2.9	/	-2.0
COc1ccc(OC)c(-c2nc(CN3CCCCC3c3cccnc3)c(C)o2)c1 (stereo not given)	59*	0.8	0	3.4	6	1.1	3%	-1.4
O=C(CC1C(=O)NCCN1Cc1ccccc1C(F)(F)F)NC1CCCC1 (stereo not given)	-1	0.0	1	0.7	-6	0.4	/	1.2
O=C(O)c1cc(NS(=O)(=O)c2ccc(NCc3ccccc3)c([N+](=O)[O-])c2)cc(C(=O)O)c1	-4	0.6	3	1.2	/	-2.0	/	-2.7
